Bioassay records: PubChem, National Center for Advancing Translational Sciences (NCATS)
NPR1 antag: Natriuretic polypeptide receptor (hNpr1) antagonism - Primary qHTS | Atrial natriuretic peptide receptor 1 (Homo sapiens), P16066 | HEK293 hNpr1 GloSensor cGMP, ANP-stimulated luminescence | Potency, µM (series often up to 46.3 µM), for the others: top-dose activity change, negative = inhibition, usual class: inhibitors | 76,000 compounds, 1.6% hits; active = well fitted inhibition curve with a large enough effect; inconclusive = small, poorly fitted or top-dose-only effect; inactive = no such curve, though single readings can be large or run the other way;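 note: nearly all actives have a fitted effect of over 60% in size; nearly all hits also lower the signal before the agonist is added; a reference antagonist and vehicle were the controls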
Target sequence (P16066 whole entry, looked up): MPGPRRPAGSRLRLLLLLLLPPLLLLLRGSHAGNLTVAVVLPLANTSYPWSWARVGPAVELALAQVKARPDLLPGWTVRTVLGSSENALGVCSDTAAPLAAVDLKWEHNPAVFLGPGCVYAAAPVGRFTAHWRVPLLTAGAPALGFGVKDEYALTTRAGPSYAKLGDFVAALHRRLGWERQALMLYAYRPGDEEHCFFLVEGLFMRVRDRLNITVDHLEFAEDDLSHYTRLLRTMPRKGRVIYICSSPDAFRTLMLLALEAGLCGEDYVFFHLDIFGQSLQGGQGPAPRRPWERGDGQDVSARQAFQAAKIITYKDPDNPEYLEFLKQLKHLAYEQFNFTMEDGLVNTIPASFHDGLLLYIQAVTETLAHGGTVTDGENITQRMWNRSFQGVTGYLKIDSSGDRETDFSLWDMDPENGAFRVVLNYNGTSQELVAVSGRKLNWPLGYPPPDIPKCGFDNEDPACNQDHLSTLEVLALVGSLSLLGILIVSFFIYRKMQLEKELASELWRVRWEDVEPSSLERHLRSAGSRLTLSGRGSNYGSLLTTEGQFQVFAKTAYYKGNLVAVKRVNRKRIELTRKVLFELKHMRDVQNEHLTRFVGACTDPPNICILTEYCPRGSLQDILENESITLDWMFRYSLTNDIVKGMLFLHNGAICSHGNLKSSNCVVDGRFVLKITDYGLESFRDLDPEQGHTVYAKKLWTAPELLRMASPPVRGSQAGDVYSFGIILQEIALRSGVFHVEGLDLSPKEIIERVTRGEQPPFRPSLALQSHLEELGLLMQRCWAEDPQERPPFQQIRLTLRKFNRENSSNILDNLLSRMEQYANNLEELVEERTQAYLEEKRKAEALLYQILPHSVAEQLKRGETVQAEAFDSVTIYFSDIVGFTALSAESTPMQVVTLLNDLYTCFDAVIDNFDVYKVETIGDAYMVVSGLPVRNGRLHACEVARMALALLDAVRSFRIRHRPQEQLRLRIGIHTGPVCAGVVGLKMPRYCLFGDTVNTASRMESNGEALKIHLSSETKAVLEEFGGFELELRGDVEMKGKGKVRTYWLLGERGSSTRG
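Compound pre-incubated 30 min at room temperature on GloSensor-loaded HEK293 cells stably carrying hNpr1 and the pGS-40F cGMP biosensor. Stimulation uses hNppA at 0.1 nM final; luminescence is taken at baseline and 20 min post-agonist.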
Active calls of the source: *; u = inconclusive; & = joins results of further samples; [ ] = remark or other dose. % is set by controls: 0 for no effect and ±100 for the full control effect; potency is the fitted concentration of half-maximal effect. Some of the compounds tested; count on the stated rates, not on these rows.

#	canonical_smiles	NPR1 antag
1	Cc1nc2ccccc2n1CCC(=O)N1CC[C@H](CO)[C@@H](O)C1	1.3%
2	Cc1cnc(-c2ccncc2)n1C1CCCN(C(=O)C2(c3ccccc3)CC2)C1 (configuration not stated)	-2.2%
3	CC(C)NC(=O)NC[C@H]1O[C@@H](CC(=O)NCc2cccnc2)[C@H](O)[C@@H]1O	-0.4%[70.6 µM]
4	CC(=O)N[C@H]1C[C@@H](c2nc(-c3ccc4c(c3)OCO4)no2)N(C)C1	1.2%[70.6 µM]
5	COc1ncccc1-c1nc(-c2c(C)noc2C)cc2cc(C(C)C)oc12	0.9%[70.6 µM]
6	CNC(=O)N1CCC(C2CCN(C(=O)CCc3ccccc3OC)C2)CC1 (configuration not stated)	3.3%
7	Cc1cc(C)n(-c2ccc(NC(=O)CC[C@H]3NC(=O)c4ccccc4NC3=O)cc2)n1	1.8%
8	O=C(NCCc1ccc(Cl)cc1)c1cc(Br)cn2ccnc12	-5.6%&-5.3%
9	CC(C)N1C[C@H](C(=O)NCCOc2ccccc2)[C@H](C(=O)O)C1	-23.1%
10	COc1ccc(C2(C(=O)N3CCCN(S(=O)(=O)c4ccccc4)CCC(=O)NCC3)CC2)cc1	-12.6%
11	Fc1ccccc1-c1noc(-c2nc(Cc3ccccc3)no2)n1	4.5%
12	COc1ccc(C(=O)N[C@H]2CO[C@H]3[C@@H]2OC[C@@H]3n2cc(CN(C)Cc3ccccc3)nn2)cc1	0.7%
13	CNC(=O)[C@@H]1C[C@H](Oc2cccnc2)CN1C(=O)Cn1nc(C)cc1C	2.9%
14	CSc1cccc(NC(=O)Nc2cccc(-c3ccc(N4CCCC4)nn3)c2)c1	-30.3%
15	COCCN1C(=O)c2cccn2CC1CNC(=O)c1ccoc1 (configuration not stated)	-0.7%
16	O=C(COc1ccccc1)N1CCOC[C@H](Oc2ccc(C(F)(F)F)cc2)C1	-6.2%[70.6 µM]
17	COc1ccc(Nc2cnc3ccc(-c4ccccc4OC)nn23)cc1OC	28.2µM*
18	CCC(NC(=O)c1ccc2nc(-c3ccc(F)cc3)cn2c1)c1cccnc1 (configuration not stated)	1.5%
19	Cc1cc(C)cc(Nc2nc(C)cc(=O)n2CC(=O)Nc2cccc(C#N)c2)c1	-12.0%
20	COc1cc(Cl)ccc1C(=O)N1CCC2(CC1)NC(=O)N(c1ccc(F)cc1)N2	-19.5%
21	O=C(c1ccc2c(c1)OCO2)N1CCC2(CC1)CC(c1cccnc1)=NO2	0.0%
22	CC(C)c1noc(-c2cn(C3CCN(C(=O)C4(c5ccccc5)CC4)C3)nn2)n1 (configuration not stated)	-2.2%
23	COc1ccc(C(=O)N2CCCC(n3cc(-c4nc(C)no4)nn3)C2)cc1F (configuration not stated)	0.0%
24	Cc1nc(N2CCC(NC(=O)c3ccc[nH]3)CC2)cc(C(F)(F)F)n1	-22.2%
25	O=S(=O)(c1ccc(F)cc1)N1CC(c2nnc(-c3ccncc3)o2)C2(CCOCC2)C1 (configuration not stated)	-1.6%
26	COCCOC1CCOC2(CCN(C(=O)c3cnc(C)cn3)CC2)C1 (configuration not stated)	-3.3%
27	Cc1nnnn1-c1cccc(C(=O)N2CCC3(CCCN(C)C3=O)C2)c1 (configuration not stated)	6.5%
28	COc1cccc2c1OCCCN(CC1(O)CNCCOC1)C2 (configuration not stated)	9.8%
29	CC(C)c1noc(-c2cn(C3CCCN(C(=O)c4cccs4)C3)nn2)n1 (configuration not stated)	-21.2%
30	Cn1cc(-c2ccccc2Oc2ccccc2)c2nc(CO)cn2c1=O	-0.2%[70.6 µM]
31	O=C1COCC2(CN1)CN(Cc1ccc(Cl)cc1)C2	-9.7%[70.6 µM]
32	CCC1Oc2ccc(NC(=O)CC(C)(C)C)cc2CN(Cc2ccccc2F)C1=O (configuration not stated)	-20.5%
33	FC(F)(F)C1CN(c2cc(N3CCOCC3)ncn2)CCO1 (configuration not stated)	0.6%
34	Cc1nc(CN2Cc3nc(N(C)c4ccccc4)ccc3OCC2=O)cs1	u
35	COc1ccc(C(=O)N2CCC3(CC2)C(OC)CN3c2cccc(F)c2)cc1 (configuration not stated)	-1.4%
36	Cc1nc(-c2ccccc2)n(Cc2ccc(C#N)cc2)c(=O)c1CCO	2.8%
37	COc1ccc(C(=O)N2CCCC(c3nn(-c4ccccc4)c(=O)[nH]3)C2)cc1 (configuration not stated)	14.3%
38	Cc1cccc(C)c1NC(=O)Cn1ccn2nc3c(c2c1=O)CCCC3	-11.6%
39	CCN1C(=O)CCN(C(=O)c2ccc(OC)cc2)CC12CCOCC2	4.2%
40	CN1CC(=O)N(c2ccccc2)Cc2c1ncnc2N1CCC(O)CC1	-11.3%
41	CNC(=O)[C@@H]1CN(S(=O)(=O)c2c(C)noc2C)C[C@H]1C1CCN(C)CC1	-2.5%
42	O=C(O)C1CN(C(=O)c2ccco2)CCN(C2CCOCC2)C1 (configuration not stated)	-0.4%
43	O=C(O)C[C@@H]1CCN(C(=O)c2ccc(F)cc2)C[C@@H]1CCN1CCCCC1	12.0%[70.6 µM]
44	COC1CCC12CCN(C(=O)c1cccc(C)c1)CC2 (configuration not stated)	1.0%
45	CCCOc1ccc(CNC(=O)CCn2ccn3nc4c(c3c2=O)CCCC4)cc1	-2.1%
46	CC(C)NC(=O)c1cnc2c(c1)N(C(=O)Cc1cccc(C(F)(F)F)c1)CCC2	2.1%[70.6 µM]
47	COc1cccc(-c2cc(C3CCN(C(=O)Nc4ccc(OC)c(OC)c4)CC3)[nH]n2)c1	-11.8%
48	COCCn1ncc(N2CCCC(CC(=O)NCCN3CCCCC3)C2)cc1=O (configuration not stated)	-4.9%
49	O=C(c1c[nH]c(=O)[nH]1)N1CC[C@@H]2[C@@H](CCC(=O)N2CC2CCNCC2)C1	6.0%
50	COc1ccc(Cn2c(C3CCN(C(=O)Cc4cccc(OC)c4)CC3)n[nH]c2=O)cc1	-13.5%
51	CC1(C)[C@H]2CC[C@@H](CNC(=O)Cc3cccc(Cl)c3)[C@@H]1C2	7.7%[70.6 µM]
52	COc1ccc(-c2noc(-c3nc(Cc4cccc(F)c4)no3)n2)cc1	-9.6%
53	COc1ccc(-c2[nH]nc3ncc(-c4ccc([S+](C)(=O)[O-])cc4)nc23)c(C)c1	-19.5%[70.6 µM]
54	Cc1cc(C(=O)N2CCC(c3nnc(Cn4ccnc4)n3C)CC2)cs1	3.4%
55	CCOc1ccc(C2NC(=O)N(CC(=O)NC3CCCC3)C3=C2C(=O)OC3)cc1 (configuration not stated)	-0.8%
56	Cc1cccc(CNC(=O)c2ccc3c(c2)N(C)C2CCCCN2C3=O)c1 (configuration not stated)	0.1%
57	CC(=O)N1CCC(N[C@@H]2C[C@H](COc3cccc(C)n3)[C@@H](O)[C@H]2O)CC1	-3.4%
58	Cn1cc(CN2CCCC(COc3ccccc3C(=O)NC3CC3)C2)c2ccccc21 (configuration not stated)	-2.3%
59	Cc1ccc(NC(=O)[C@@H]2CNC[C@H](C(=O)NCc3cnn(C)c3C)C2)cn1	0.3%
60	CCOc1ccccc1NC(=O)N1CCC(c2noc(COC)n2)C1 (configuration not stated)	4.8%

Values in list order from the list.
Nos. 50–54 in NPR1 antag, in turn: -13.5%, 7.7%[70.6 µM], -9.6%, -19.5%[70.6 µM], 3.4%

Next section:
#	canonical_smiles	NPR1 antag
61	CC(=O)N1CCN(c2cc(-c3noc([C@@H]4CCCN4Cc4ccc(CO)o4)n3)ccn2)CC1	-0.7%
62	N#Cc1cccc(C(=O)NC2CCN(c3cc(-c4cccs4)[nH]n3)CC2)c1	-19.6%
63	COc1ccc2nc(CO[C@H]3CN(Cc4cccnc4)C[C@H]3F)[nH]c2c1	0.6%[70.6 µM]
64	COc1ccc(NC(=O)N2Cc3[nH]cnc3C[C@H]2c2nc(-c3ccc4ccccc4c3)no2)cc1	-4.8%
65	O=C(NCc1csc(-c2cnccn2)n1)C(c1cccnc1)N1CCOCC1 (configuration not stated)	2.1%
66	O=C1CC(c2ccccc2)N(C(=O)CC2CCCC2)CCCCCN1 (configuration not stated)	3.5%
67	CC(C)CN1CCN(C(=O)C2(CCO)CC23CCOCC3)CC1 (configuration not stated)	2.2%
68	Cc1nc(CCC(=O)N2CCCC(c3nccn3CCCN(C)C)C2)n[nH]1 (configuration not stated)	1.4%
69	O=C(c1ccc(=O)[nH]c1)N1C[C@@H](CN2CCCC2)[C@@H](CO)C1	1.9%
70	c1ccc2oc(N3CCN(Cc4ccc(-c5ccn[nH]5)o4)CC3)nc2c1	u
71	COc1ccc(-c2noc(-c3cccn3CC(=O)N(C)c3ccccc3)n2)cc1F	-0.8%
72	O=C(NCCc1noc(-c2ccncc2)n1)C1CC(=O)N(c2ccc(F)c(Cl)c2)C1 (configuration not stated)	4.0%
73	CNC(=O)c1ccc2c(c1)NC(C)(COc1ccccc1)CO2 (configuration not stated)	-17.8%[70.6 µM]
74	CCCCN(C)C(=O)CN1C(=O)NC2(CCOCC2)C1=O	13.5%
75	Cc1ccccc1CN1Cc2nc(NCc3ccncc3)ccc2OCC1=O	-16.4%[70.6 µM]
76	CC(C)c1noc([C@@H]2C[C@H]3C(=O)NCCCCCCN(C(=O)c4cccc(C#N)c4)[C@H]3C2)n1	-11.0%
77	COc1cc2c(cc1OC)C(CNC(=O)c1ccccc1Cl)N(C(=O)Nc1ccccc1F)CC2 (configuration not stated)	-4.9%
78	C[C@@H]1CN(C(=O)Cc2cccnc2)C[C@H]1c1nc(-c2ccncc2)no1	3.4%
79	O=[N+]([O-])c1cccc(-c2noc([C@@H]3C[C@@H](O)CN3C3CCOCC3)n2)c1	-0.3%[70.6 µM]
80	COCCn1ncc(N2CCCC(CC(=O)N3CCN(c4ccccn4)CC3)C2)cc1=O (configuration not stated)	0.7%
81	Cc1ccc(NC(=O)C2CCCN(c3cnc4nccnc4c3)C2)cc1Cl (configuration not stated)	0.2%
82	O=S(=O)(Cc1ccccc1F)N1CCCC(Cn2c(C3CC3)nc3cccnc32)C1 (configuration not stated)	-4.0%
83	O=C(Cn1cccc1-c1nc(-c2ccc3c(c2)OCO3)no1)Nc1cccc(Cl)c1	-1.9%
84	CC1CCC2(CC1)NC(=O)N(CC(=O)N1CCc3ccccc31)C2=O (configuration not stated)	6.4%
85	Cc1noc(C)c1-c1ccc2c(n1)CN(CCOc1ccccc1)C(=O)CO2	0.0%[70.6 µM]
86	Cn1nc(NC(=O)CSc2ccccc2)c2c(N3CCOCC3)cccc21	-4.2%
87	COc1ccc(NC(=O)COc2ccc(-c3nnc4n3CCCC4)cc2)c(OC)c1	2.5%
88	Cc1ccc(-c2nc(C(=O)N3CCN(c4cccc(C)c4C)CC3)no2)cc1	0.6%
89	Cc1cccc(CN2CCCN(S(=O)(=O)c3cn(C)cn3)C(c3ccccc3)CC(=O)NCC2)c1 (configuration not stated)	-12.2%
90	CCN(CC)C(=O)N1CCCC1c1noc(COc2ccc(F)cc2)n1 (configuration not stated)	3.8%
91	N#Cc1ccc(C(=O)Nc2ccc([C@@H](O)[C@H]3COCC(=O)N3CCCc3ccccc3)cc2)cc1	-21.3%
92	Cc1nc(C)c(C(=O)N2CCc3nnc([C@@H]4C[C@@H](O)CN4C(C)C)n3CC2)s1	-9.6%
93	COCCN1C(=O)[C@@H]2C[C@@H](CN2C(C)C)Oc2ccccc21	3.7%[70.6 µM]
94	CCOc1ccc2[nH]c(=O)c(CN(C)CC3CCN(C)C3)cc2c1 (configuration not stated)	-1.6%
95	O=C(Nc1ccccc1)N1CCC(c2nn(-c3ccc(F)cc3)c(=O)[nH]2)CC1	15.5%
96	Cc1nc(CCC(=O)N2CCn3nc(C(=O)Nc4ccccc4)cc3C2)n[nH]1	-1.1%
97	Cc1ccc(S(=O)(=O)N2CCc3c(C(=O)NCc4ccccn4)cccc32)cc1	11.2µM*
98	O=C(c1ccc2nc[nH]c2c1)N1CCN(c2cc(-c3cccs3)[nH]n2)CC1	-7.3%
99	COc1ccc(-c2ccc3nc(-c4cc(C)ccc4F)oc3c2)c(OC)c1OC	-2.0%
100	Cc1noc(-c2cccc(F)c2)c1C(=O)NCCCc1ccccc1	-6.6%
101	Cc1cc(C)n(CCC(=O)N2CCCC2c2nc(C3CCOCC3)no2)n1 (configuration not stated)	8.8%
102	Cc1nn2c(c1-c1ccnn1C(C)C)N(Cc1ccc(O)cc1)CCC2	-7.0%[70.6 µM]
103	CC(C)NC[C@H]1COCc2nc3cc(C(F)(F)F)ccc3n21	2.1%[70.6 µM]
104	COc1cc2c(cc1OC)C(C[C@H]1CN(S(=O)(=O)c3cccc(C#N)c3)CC[C@H]1CC(=O)O)=NCC2	1.4%
105	CCc1nc(C)sc1C(=O)N[C@@H]1COCC[C@H]1Oc1ccc(C#N)cc1	1.3%
106	COc1ccc(CN2Cc3cc(NC(=O)c4ccc(Cl)cc4)ccc3OC(C)C2=O)c(OC)c1 (configuration not stated)	5.1%
107	CC1CN(C(=O)c2csc(-c3ccc(C(F)(F)F)cc3)n2)CCCO1 (configuration not stated)	-1.3%

Quoted from the listing.
NPR1 antag with entry 102 reads -7.0%[70.6 µM]
NPR1 antag with entry 96 reads -1.1%
NPR1 antag with entry 105 reads 1.3%
NPR1 antag with entry 103 reads 2.1%[70.6 µM]
NPR1 antag with entry 97 reads 11.2µM*

Random excerpt: 2 records from the list, in no set order.
#	canonical_smiles	NPR1 antag
43	O=C(O)C[C@@H]1CCN(C(=O)c2ccc(F)cc2)C[C@@H]1CCN1CCCCC1	12.0%[70.6 µM]
57	CC(=O)N1CCC(N[C@@H]2C[C@H](COc3cccc(C)n3)[C@@H](O)[C@H]2O)CC1	-3.4%
